# KCNQ2 pot: potentiators of rat KCNQ2 potassium channel. actives 0.54% (n = 310,000). CHO-K1 KCNQ2, FluxOR thallium flux fluorescence; stronger effect = higher value. B-score at 10 µM. Potassium voltage-gated channel subfamily KQT member 2 (Rattus norvegicus), O88943;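 active = fluorescence ratio B-score at least 3 SD of library B-scores, with initial fluorescence B-score within 3 SD, cut at about 5.3 in these data; same plate scores as AID 2156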;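 note: B-score of peak minus minimum over baseline fluorescence ratio after K+ and Tl+ stimulus; positive B-score means potentiation of KCNQ2 with more thallium influx and brighter signal; only the inactives scoring about 0 or higher are listed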
# Target sequence (O88943 whole entry, looked up): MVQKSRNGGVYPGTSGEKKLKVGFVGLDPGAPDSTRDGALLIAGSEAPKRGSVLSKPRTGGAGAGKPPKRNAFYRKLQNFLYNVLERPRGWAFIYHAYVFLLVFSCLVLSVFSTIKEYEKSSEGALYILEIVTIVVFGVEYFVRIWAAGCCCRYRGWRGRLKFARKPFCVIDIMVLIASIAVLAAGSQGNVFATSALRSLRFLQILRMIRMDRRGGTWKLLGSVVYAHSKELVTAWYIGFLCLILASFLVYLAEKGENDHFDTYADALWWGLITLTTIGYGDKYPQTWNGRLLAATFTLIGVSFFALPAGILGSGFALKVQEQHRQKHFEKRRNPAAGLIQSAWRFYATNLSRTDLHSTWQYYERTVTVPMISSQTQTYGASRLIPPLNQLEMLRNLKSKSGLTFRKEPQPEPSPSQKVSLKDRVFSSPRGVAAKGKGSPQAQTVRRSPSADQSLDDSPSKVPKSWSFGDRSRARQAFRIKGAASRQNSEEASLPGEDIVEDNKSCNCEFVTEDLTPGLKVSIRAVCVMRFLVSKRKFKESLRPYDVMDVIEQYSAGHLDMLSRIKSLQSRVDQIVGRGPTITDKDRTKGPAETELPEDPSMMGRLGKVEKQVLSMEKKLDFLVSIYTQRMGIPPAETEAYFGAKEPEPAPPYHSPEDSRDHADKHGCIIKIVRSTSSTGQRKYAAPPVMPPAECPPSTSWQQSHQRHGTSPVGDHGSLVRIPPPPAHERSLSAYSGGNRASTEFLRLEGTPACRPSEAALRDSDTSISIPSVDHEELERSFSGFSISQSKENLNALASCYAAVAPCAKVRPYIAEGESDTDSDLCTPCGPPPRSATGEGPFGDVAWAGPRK
# KCNQ2 pot baseline: second read-out of KCNQ2 pot, no call of its own (marks repeat the call); B-score; compound at 10 µM; measured here: initial fluorescence intensity artifact check;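 brightness before thallium and not channel activity; 0 = typical well and far values either way flag optical interference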
# Starred values were filed as active, the others as inactive.
KCNQ2 pot	KCNQ2 pot baseline	Structure
0.19	-2	Clc1ccc2c(c1)C(C1=NCCN1)c1ccccc1CS2 (stereo not given)
0.75	-1.6	COc1ccccc1[C@@H]1C(c2cccc(Cl)c2)=NN(c2ccc(Br)cc2)[C@H]1C(=O)N1CCOC1=O
1.5	-1.4	CCOC(=O)c1c(NC(=O)C2CCN(S(=O)(=O)c3cccs3)CC2)sc(C)c1C
1.1	-1.4	Cc1cc(/C=N/NC(=O)C(O)(c2ccccc2)c2ccccc2)c(C)n1-c1cccc(C(=O)O)c1
1.6	0.39	COc1ccc(C(=O)N/N=C/c2ccc(OC)c(COc3ccc(F)cc3)c2)cc1
1.2	-0.1	CN(c1ccccc1C(=O)NCC1CCCO1)S(C)(=O)=O (stereo not given)
0.73	-0.44	COc1cccc(CNc2cc(C)ccn2)c1O
1.2	0.04	COc1c(Br)cc([N+](=O)[O-])c(OC)c1C(=O)NC(=O)Nc1c(Cl)cccc1Cl
0.92	-0.56	CN1c2ccccc2C(O)=C(C(=S)Nc2ccccc2)S1(=O)=O
0.95	0.03	CC(=O)Nc1ccc(N(C(=O)CNC(=O)c2ccco2)C(C(=O)NCc2ccco2)c2ccccc2F)cc1 (stereo not given)

# Later entries.
KCNQ2 pot	KCNQ2 pot baseline	Structure
0.72	0.18	N=C(N)c1ccc(/C=C/c2ccc(C(=N)N)cc2O)cc1
0.68	-0.39	CCOC(=O)C1CCCN(c2c(NCCN(CC)c3ccccc3)c(=O)c2=O)C1 (stereo not given)
0.51	0.59	Cc1ccc(Nc2ncccc2C(=O)O)cc1C
1.4	-0.51	CC1CC(C)CN(S(=O)(=O)c2ccc(C(=O)N3CCOCC3)cc2)C1 (stereo not given)
0.17	2.7	CCc1ccc(-c2cc(C(=O)NN3CCOCC3)c3ccccc3n2)s1
0.86	-0.95	CNCC(=O)Nc1ccc(OC(F)(F)F)cc1
1.6	0.01	COc1ccc(C(C(=O)NC2CCCC2)N(Cc2cccnc2)C(=O)c2snc(C(N)=O)c2N)cc1OC (stereo not given)
1	-0.11	COc1ccccc1C(=O)Nc1ccc(C(=O)N2CCCC2)cc1
0.82	2	Cn1c(CCN2CCN(c3ccccn3)CC2)nc2cc(NC(=O)COc3ccc([N+](=O)[O-])cc3)ccc21
0.02	0.1	Cc1cc([N+](=O)[O-])ccc1NC(=O)/C=C/c1cccs1

# Next entries
KCNQ2 pot	KCNQ2 pot baseline	Structure
0.01	2.5	CC(=O)c1cnn(-c2ccc(Cl)cc2)c1C
0.88	-0.23	COC(=O)c1c(C(=O)OC)c2cc(C(=O)c3ccccc3)ccn2c1Cl
0.65	2.6	CCOC(=O)NC(Nc1ccc(C)cn1)(C(F)(F)F)C(F)(F)F
1.7	-0.38	COCCNC(=O)Nc1ccc2c(c1)N(C)C(=O)CS2
1	0.18	O=C(COC(=O)/C=C/c1cccs1)Nc1nc(-c2cccc(Br)c2)cs1
0.99	-0.43	CC(=O)NCCCNS(=O)(=O)c1ccc(C)cc1
0.8	-0.85	CN(C)/C=C(\C#N)C(N)=C(C#N)C#N
0.55	2.7	O=C(CSc1nnc(-c2ccccc2F)n1C1CCCCC1)N1CCCC1
1.5	0.06	O=C(CCCOc1ccccc1)Nc1cccc(C(=O)O)c1
1.1	-2	CCCCC(=O)Nc1cccc(NC(=O)c2ccc(Br)cc2)c1

# Further entries follow.
KCNQ2 pot	KCNQ2 pot baseline	Structure
0.05	-0.63	Cc1c(NC(=O)C(C)OC(=O)COc2cccc3c2OC(C)(C)C3)c(=O)n(-c2ccccc2)n1C (stereo not given)
0.01	-1.4	Cc1onc(-c2ccccc2Cl)c1C(=O)NCC(=O)O
1	0.3	CCc1ccc(C(C)NC(=O)c2ccc3c(c2)OCO3)cc1 (stereo not given)
0.72	-0.18	CC[C@@H](C)[C@H](NC(=O)Cc1c(C)c2cc3c(C)coc3c(C)c2oc1=O)C(=O)O
1.2	0.85	Cc1ccc(-c2nc3cnccn3c2Nc2ccc3c(c2)OCO3)o1
0.68	-0.39	Cc1ccc(C(C)C)c(OCC(O)CN2CCOCC2)c1 (stereo not given)
0.57	2.8	COc1ccccc1-n1nnnc1SCC(=O)Nc1ccc(C)c(N)c1
0.98	0.81	COc1ccc(NC(=O)CCn2cc(C)c3ccccc32)cc1
0.33	-0.59	Cc1cc(C)n(S(=O)(=O)c2cc(C(=O)O)c(Cl)cc2Cl)n1
0.15	1.2	COc1ccc(C/C(N)=N/OC(=O)c2cccs2)cc1

# Later entries:
KCNQ2 pot	KCNQ2 pot baseline	Structure
0.72	0.31	COc1ccc(C(=O)N2C(=O)c3ccc(N)cc3C2=O)cc1
0.94	-0.32	CCc1ccc(NC(=O)CSc2nc(NS(=O)(=O)c3ccccc3)cc(=O)[nH]2)cc1
0.91	2	CC(C)NC(=O)c1cc(-c2ccc(Br)cc2)on1
0.02	-1.1	Cc1ccc(Nc2cc(-n3nc(C)cc3C)ncn2)c(C)c1
0.68	0.28	COc1ccc(OC)c(NC(=O)c2cccc(N3C(=O)C4C5C=CC(C6CC56)C4C3=O)c2)c1 (stereo not given)
0.29	2.3	COC(C[C@H]1O[C@H]1[C@@H](O)[C@H](C)OCc1ccccc1)OC
0.69	0.93	CC1(C)CC(N(Cc2ccccc2)C(=O)Cc2ccccc2)CCO1 (stereo not given)
0.56	0.75	COc1ccc(CCNC(=O)CSc2nnc(-c3cccc(F)c3)o2)cc1OC
0.09	-0.25	COc1ccc(CNC(=O)C2CCNCC2)cc1
0.67	0.73	c1ccc(Cn2nnc3c(N4CCc5ccccc5C4)ncnc32)cc1

# Overlap with the part before: three entries, followed by the next part.
KCNQ2 pot	KCNQ2 pot baseline	Structure
0.56	0.75	COc1ccc(CCNC(=O)CSc2nnc(-c3cccc(F)c3)o2)cc1OC
0.09	-0.25	COc1ccc(CNC(=O)C2CCNCC2)cc1
0.67	0.73	c1ccc(Cn2nnc3c(N4CCc5ccccc5C4)ncnc32)cc1
0.72	0.06	Cc1nnc(SCC(=O)NCCN2C(=O)CSC2=O)s1
0.01	0.55	COc1cc2[nH]ccc(=O)c2cc1OC
0.74	0.54	CC(=O)Nc1nc2c(c3c1c(=O)oc1ccccc13)CCCCC2
0.59	-4.4	Cc1cc(C(C#N)c2ccc(Cl)cc2)c(Cl)cc1NC(=O)c1cc(I)cc(I)c1O (stereo not given)
2.2	-0.96	C/C(N)=C(/C#N)C(=O)CSc1n[nH]c(-c2cccs2)n1
1.3	-1.6	O=C1c2cccnc2C(=O)N1Cc1ccc(Cl)cc1
0.64	-0.48	Cc1ccc(Cn2ncc3c(N4CCCC4)ncnc32)cc1
0.85	0.59	O=C(NC(=S)Nc1cccc([N+](=O)[O-])c1)C1CCCCC1
0.91	0.72	Cc1cccn2c(=O)c(C(=O)NCCCN3CC(C)CC(C)C3)c(O)nc12 (stereo not given)
0.29	-2	O=C(Nc1cccc(Cl)c1)c1cc(-c2ccco2)on1

# Next part
KCNQ2 pot	KCNQ2 pot baseline	Structure
0.09	0.91	CC(=O)Nc1ccc(S(=O)(=O)N(C)Cc2cnn(C)c2)cc1
1.5	1.7	CN1CCC(N(C)CC(O)c2ccccc2)CC1 (stereo not given)
0.93	-1.7	Cc1cccc(C(=O)NC2CCN(S(=O)(=O)c3ccc(F)cc3)CC2)c1
1.1	0.26	C/C(CC(=O)NC1CCCCC1)=N\NC(=O)COc1ccc(C)cc1Br
1.6	-1.3	CN1CCN(C(=O)c2cnn3c2NC(c2ccccc2)CC3C(F)(F)F)CC1 (stereo not given)
1.4	0.05	O=[N+]([O-])c1ccc(-c2cn(-c3ccccc3F)c(=S)[nH]2)cc1
0.85	0.63	CCn1ccnc1CN1CCC(n2nccc2NC(=O)CCc2ccccc2)CC1
0.57	-1.5	Cc1ccc(NC(=O)CSc2nnc(-c3cc(C)[nH]n3)n2N)c(C)c1
1.4	0	CC(=O)NC1=NC(=O)/C(=C/N2CCOCC2)S1
0.41	-1.2	COc1cccc(NC(=O)CSc2nc3ccccc3c(=O)n2CCCC(=O)NCC2CCCO2)c1 (stereo not given)

# Full records, quoted from the list. Order of values: KCNQ2 pot | KCNQ2 pot baseline
# CCCCC(=O)Nc1cccc(NC(=O)c2ccc(Br)cc2)c1 in the list: 1.1 | -2
# Cn1c(CCN2CCN(c3ccccn3)CC2)nc2cc(NC(=O)COc3ccc([N+](=O)[O-])cc3)ccc21 in the list: 0.82 | 2
# CC[C@@H](C)[C@H](NC(=O)Cc1c(C)c2cc3c(C)coc3c(C)c2oc1=O)C(=O)O in the list: 0.72 | -0.18
# CC(=O)NC1=NC(=O)/C(=C/N2CCOCC2)S1 in the list: 1.4 | 0
# O=C(Nc1cccc(Cl)c1)c1cc(-c2ccco2)on1 in the list: 0.29 | -2

# (more compounds)
KCNQ2 pot	KCNQ2 pot baseline	Structure
0.19	0.69	C/C(CC(=O)N1CCN(C=O)CC1)=N\NC(=O)c1ccc(Cl)cc1
1.5	0.27	Cn1ncc(Br)c1C(=O)N1CCN(C(=O)c2ccco2)CC1
0.01	-0.82	Cc1ccc(OCC(=O)Nc2ccc3c(c2)CCC3)c([N+](=O)[O-])n1
0.57	1.2	O=C(O)CSCC(=O)N(c1ccccc1)c1ccccc1
0.41	-0.96	Oc1ccccc1-c1nnc(COc2ccc(Cl)cc2Cl)o1
1.7	-0.49	Cc1ccc(NC(=O)NCc2ccc3c(c2)OCO3)c(C)c1
0.25	0	Cc1ccc(S(=O)(=O)c2cc(N3CCOCC3)nc(-c3ccccc3)n2)cc1
1.1	-0.89	Cc1cc(OCc2cc(C(=O)N(Cc3nccn3C)C(C)C)no2)cc(C)c1Cl
1.6	-1.5	O=C(Nc1cccnc1)c1ccc(Br)c(S(=O)(=O)N2CCCC2)c1
2.7	-0.04	Cc1cccc(NC(=O)Nc2ccc([N+](=O)[O-])cc2)n1

# Other structures.
KCNQ2 pot	KCNQ2 pot baseline	Structure
0.02	0.32	COc1ccc2c(c1)SCC/C2=C\CN1C(=O)CCC1=O
0.06	-0.43	O=C(Nc1cccnc1)c1cnc2ccccc2n1
1.9	-0.73	CCOC(=O)c1c(C)[nH]c(C(=O)CSc2nnc(C3CC3)n2N)c1C
0.63	0.8	O=C(CNS(=O)(=O)c1ccccc1)Nc1ccc(C(F)(F)F)cc1
0.03	-0.26	Cc1ccn2c(=O)c(C(=O)NCCC3=CCCCC3)c(O)nc2c1
0.94	0.42	CCN(CC)C1=NC=CC(c2ccccc2)=CC1C (stereo not given)
0.55	-1.6	O=C(NCCc1ccccc1)c1nc2nc(-c3cccs3)cc(C(F)(F)F)n2n1
0.65	-0.21	CCN(CC)S(=O)(=O)c1ccc(C(=O)OCCNC(=O)c2cccnc2)cc1
2.9	-0.48	O=C(Nc1cccc(Br)c1)C1CCCC1
0.44	0.53	CCC1CCCCN1CCCNC(=O)Cn1c(=O)c2cccn2c2cccnc21 (stereo not given)

# (further entries)
KCNQ2 pot	KCNQ2 pot baseline	Structure
1.1	-0.66	Cc1ccc(-n2nnnc2Sc2ccc(S(=O)(=O)NCCN(C)C)cc2[N+](=O)[O-])cc1
0.25	-0.18	CC1CCCCC1N=CC1=C(O)CC(C)(C)CC1=O (stereo not given)
0.88	2	Cc1ccc(CNC(=O)C(NS(=O)(=O)c2cccc3nsnc23)C(C)C)cc1 (stereo not given)
2.5	0.71	Cc1ccc(C(=O)CC(=O)c2cccc(F)c2)c(O)c1
0.68	-1	Cc1csc(SCC(=O)NC2CCCCC2)n1
1.2	-0.29	CCCCn1c(SCC(=O)NC(=O)NCc2ccco2)nc2cc(S(N)(=O)=O)ccc21
0.55	-1.9	COc1ccccc1/C=N/NC(=O)c1sc(C)nc1C
0.92	-0.02	Cc1cccc2cc(=O)[nH]c(C)c12
0.03	0.46	CN1CCN(C(=S)SCC(=O)Nc2nc(-c3ccccc3)c(-c3ccccc3)o2)CC1
1.4	0.02	CC1(C)Cc2cccc(OCC(=O)Nc3cccnc3Cl)c2O1

# Going on with the list:
KCNQ2 pot	KCNQ2 pot baseline	Structure
1.9	-1.5	COc1ccc(OC)c(S(=O)(=O)N2CCC(C(=O)NCc3ccc4c(c3)OCO4)CC2)c1
1.1	-1.6	Cn1c(=O)n(-c2cccc(Cl)c2)c(=O)c2c3c(sc21)COC(C)(C)C3
0.1	0.99	CC1Cc2cc(/C(O)=C3/C(=O)C(=O)N(CC4CCCO4)C3c3ccco3)ccc2O1 (stereo not given)
0.4	-0.18	Cc1cccc(NS(=O)(=O)c2cnc[nH]2)c1
0.76	-0.74	CC(C)(C)OC(=O)NCCCC1=CC2=CC(=O)C(C)(O)C(=O)C2=CO1 (stereo not given)
0.13	2.3	CCn1c(CC(=O)Nc2ccc(F)cc2)nnc1SCC(=O)Nc1nnc(C)s1
0.89	2	Cc1nnc(SCC(=O)NC2CCS(=O)(=O)C2)n1Cc1ccccc1 (stereo not given)
0.45	-0.35	CCOc1ccc(S(=O)(=O)N2CCN(c3ccc(OC)cc3)CC2)c2cccnc12
0.48	-0.81	CCN1C(=O)[C@@H]2[C@H](C1=O)[C@@H]1C[C@H]3C(=O)N(CC)C(=O)[C@H]3[C@@H]3C1=C(C(=O)N1C(=O)OC(=NCC4CC4)[C@]31C)[C@@H]2C
1.1	-0.21	COC(=O)C(NC(C)=O)(Nc1nc2ccc(C)cc2s1)C(F)(F)F (stereo not given)

# (continued)
KCNQ2 pot	KCNQ2 pot baseline	Structure
0.29	1.7	Cc1ccccc1NCC(=O)N/N=C\c1ccc([N+](=O)[O-])s1
1	0.61	Cn1nnnc1SCCOc1ccc(C#N)cc1
0.77	-1.8	CC(C)(/C=N/NC(=O)CSCc1ccccc1Cl)CCC#N
2.2	0.78	O=C(NCCC1=CCCCC1)c1ccc(F)cc1
0.59	-1.2	Cc1ccc(S(=O)(=O)N2CCCC2CNC(=O)C(=O)NC2CC2)cc1 (stereo not given)
0.03	-0.38	C/C(=N\NC(=O)c1ccccc1)c1ccc2c(c1)OCO2

# The list is partial; rates above refer to the full screens.
